Sa ugtP lethal = growth inhibition of ugtP-null S. aureus, primary screen, RN4220 ugtP deletion, OD600 | AID 1259309, 2017 | 16 h; some inactives read as strong as hits | growth inhibition, % (test concentration not listed) | 330,000 compounds, 0.54% hits;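 active means z-score under -3 and OD600 up to 0.15 on both plates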;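 further: plate controls were untreated wells for no effect and antibiotic for full effect; wells of about 80 µL received 100 nL stock; the first replicate is given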
BJeLR viability = MLPCN primary cell-based screen for lethality selective to Ras in HRASV12 cells; BJeLR (HRASV12) viability, CellTiter-Glo ATP luminescence, 48 h; reference of the scale not given here; inhibition, % (concentration not given with the values); 300,000 compounds, 0.17% hits; AID 1554, 2009;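 active means replicate mean above 50%; inconclusive means above 50% but judged a plate artefact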;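 further: 50 nL library stock added to about 25 µL; numbers are from one replicate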
Sa RN4220 lethal = growth inhibition of S. aureus RN4220, primary screen, OD600; 330,000 compounds, 0.33% hits; AID 1259311, 2017; inhibition, % (concentration not given with the values); 16 h;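 active means z-score of -3 or lower and OD600 up to 0.18 on both plates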;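 further: plate controls were untreated cells for no effect and reference antibiotic for full effect; stock transfer was 100 nL into about 80 µL; one replicate is shown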
PrP 5UTR inh = inhibition of PrP 5' UTR reporter expression. cell-based PrP 5' UTR mRNA reporter, plate reader. inhibition, % (no concentration beside the values). 340,000 compounds, 0.35% hits;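 active means every replicate at 50% or more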;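 further: 0 = median of the neutral control wells; tested in H4 reporter cells; numbers are from one replicate; inactives centre near -14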
Mtb hypoxia inh = PubChem AID 1159583; M. tuberculosis hypoxia-regulated fluorescent reporter, fluorescence; fluorescence inhibition, % (no concentration beside the values); 300,000 compounds, 0.1% hits;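 active means 35 to 45% if threefold the growth effect, above 45% if 1.5-fold the growth effect; inactive means the rest, general growth blockers included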;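 further: wells of about 50 µL received 100 nL stock; 0% = vehicle wells and 100% = reference inhibitor wells; whole bacteria with a GFP reporter of the hypoxia response; strong numbers were not always called active; many hits fall short of the cut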
Autofluor counter = compound fluorescence in toxin protease inhibitor counterscreen; compound autofluorescence counterscreen, microsphere flow cytometry; hits give high values; fluorescence intensity (concentration not given with the values); 360,000 compounds, 3.1% hits; AID 624483;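 active means at least 3 SD above the mean of all compounds, about 16000 in these data; inconclusive means too few beads counted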;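 further: 100 nL of 1 mM stock went into each well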
Mtb hypoxia inh growth = recorded beside Mtb hypoxia inh, whose call it bears; growth inhibition, %; measured here: M. tuberculosis growth (absorbance);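 0% = vehicle and 100% = reference antibiotic; read after six days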
* hit, by the source's call; ? = inconclusive; · = not tested or not shown. Compounds as they come. About 4% of those tested had a hit in this group.

SMILES	Sa ugtP lethal	BJeLR viability	Sa RN4220 lethal	PrP 5UTR inh	Mtb hypoxia inh	Mtb hypoxia inh growth	Autofluor counter
COc1ccc(-c2[nH]ncc2CN2CCCC2c2nonc2C)c(F)c1 (centres undefined)	7	1	10	-19	1	2	4292
Cc1noc(C)c1C(=O)NCc1ccccc1Br	2	1	1.5	-18	18	2	4162
CC(=NNc1nccnc1Cl)c1ccc(O)cc1	2	·	0.2	·	6	12	·
O=C(NN=Cc1cccc2nccnc12)c1ccncc1	4	·	2.1	·	·	·	·
N=c1n(CCN2CCCCC2)c2ccccc2n1CC(O)c1cccc(Br)c1 (centres undefined)	·	5	·	3	·	·	3265
COc1ccc(-c2ccc(SCC(=O)c3ccccc3)nn2)cc1OC	52	32	2.5	-5	11	11	4176
O=S(=O)(Nc1ccc2c(c1)OCCO2)c1ccc(F)c(F)c1	·	8	·	-39	·	·	5495
COc1ccc(-c2cc(C(F)(F)F)nc(N3CCN(C)CC3)n2)cc1OC	-3	-11	1.1	-2	1	6	3207
CCOC(=O)c1cnc(SCc2cccc(C)c2)nc1N	34	-8	-4.8	-27	9	12	3974
O=C1c2ccccc2C(=O)c2c1ccc(C(=O)N1CCCCC1)c2NCCO	-4	12	7.2	-6	·	·	5893
CCCCN(CCCC)C(=O)CSc1nnc2n(C)c(=O)c3c4c(sc3n12)CCCC4	11	·	2.5	-8	6	3	2707
Cc1cc(C)cc(OCCNC(=O)C(C)N2C(=O)c3ccccc3C2=O)c1 (centres undefined)	1	1	4.6	-8	-14	-20	5195
CCN(CC)S(=O)(=O)N1CCC(C(=O)NCc2ccco2)CC1	5	0	0.5	2	-5	6	4573
O=C(O)C1CSC(c2ccncc2)N1 (centres undefined)	15	-4	-3.0	-19	·	·	2764
COc1ccc(N/C=C(\C2OC(=O)c3ccccc32)[N+](=O)[O-])cc1 (centres undefined)	·	-1	·	-4	·	·	4446

An excerpt of these results, with two lines to a compound.
Fields: Sa ugtP lethal, BJeLR viability, Sa RN4220 lethal, PrP 5UTR inh, Mtb hypoxia inh, Mtb hypoxia inh growth, Autofluor counter
O=C(O)C1CSC(c2ccncc2)N1 (centres undefined)
    15, -4, -3.0, -19, ·, ·, 2764
CC(=NNc1nccnc1Cl)c1ccc(O)cc1
    2, ·, 0.2, ·, 6, 12, ·
CCN(CC)S(=O)(=O)N1CCC(C(=O)NCc2ccco2)CC1
    5, 0, 0.5, 2, -5, 6, 4573
CCCCN(CCCC)C(=O)CSc1nnc2n(C)c(=O)c3c4c(sc3n12)CCCC4
    11, ·, 2.5, -8, 6, 3, 2707

(list continues)
SMILES	Sa ugtP lethal	BJeLR viability	Sa RN4220 lethal	PrP 5UTR inh	Mtb hypoxia inh	Mtb hypoxia inh growth	Autofluor counter
CCc1ccccc1OCC(=O)Nc1cccc(S(=O)(=O)NC2=NCCCCC2)c1	9	·	6.4	-9	5	3	·
COCC(=O)OCn1nnc2ccccc2c1=O	2	-3	-0.3	-38	·	·	2649
NC(=O)C[n+]1cccc(C(=O)Nc2ccccc2)c1	0	-18	-0.2	-6	13	-4	·
CCCNC(=O)c1ccc2c(=O)c(O)c(C)[nH]c2c1	2	9	7.0	-10	6	7	3754
O=C(c1cccc(S(=O)(=O)NCc2ccccc2)c1)N1CCN(c2ccccc2Cl)CC1	-9	·	12	-7	0	-3	2910
CC(=O)Nc1ccc(C(=O)N/N=C/c2ccc(F)cc2)cc1	·	-2	·	20	·	·	4725
O=C(Cc1ccc([N+](=O)[O-])cc1)Nc1ccc(Br)cn1	8	-5	-0.1	-1	11	9	3803
COC(=O)C1CCN(C(=O)COC(=O)C2CCN(S(=O)(=O)c3c(Cl)cccc3Cl)CC2)CC1	3	4	2.4	-7	5	5	?
CCN1CCN(c2nc3sc4c(c3c3ncnn23)CC(C)CC4)CC1 (centres undefined)	1	-5	-3.9	-29	·	·	4735
Cc1nc2ccccc2c(=O)n1N=Cc1cccnc1	-6	·	-3.7	·	6	-2	·
O=C(NCCc1ccccc1)C1COc2ccccc2O1 (centres undefined)	5	-1	4.7	-29	·	·	4022
O=C(Nc1ccc2nc3n(c(=O)c2c1)CCCCC3)C(=O)N1CCN(c2ccccc2)CC1	-1	-4	-3.1	-13	-6	9	5861
c1ccc(-c2nc3ccccc3c3nncn23)cc1	·	-4	·	-20	·	·	4597
Cc1cc2cc(OCc3ccccc3)ccc2n1C	3	-8	4.8	-77	-3	5	3372
COc1cc(/C=C2\C(=O)NN(c3ccccc3)C2=O)ccc1OCC(N)=O	4	7	8.8	·	3	12	·
COC(=O)C1=C(c2ccc(-c3ccccc3)c(F)c2)CC2CCC1N2C(=O)NCc1cccc2ccccc12 (centres undefined)	-1	·	-2.2	·	-9	-12	·
CON(C)S(=O)(=O)c1ccc2c(c1)N(Cc1ccc(C)cc1)C(=O)C1CCCN21 (centres undefined)	-12	4	7.2	-16	-2	3	3848
CSC1=NSC2=NC(=O)/C(=C\c3ccc(OC(=O)c4ccco4)cc3)C(=N)N12	0	3	8.0	-60	-11	-6	4105
CCC(C)(C)n1nnnc1C(CC(C)C)N1CCC(C(N)=O)CC1 (centres undefined)	2	-1	1.6	-10	·	·	4915
CCN1CCN(C(=O)c2ccc(C(F)(F)F)cc2)CC1	5	3	1.6	-7	-10	-5	4636
COc1ccc(OCC(=O)OCCN2C(=O)c3ccccc3C2=O)cc1	-7	15	1.7	-12	-15	7	20429*
CC(C)(C)NC(=O)CSC(=Nc1cccc(F)c1)NC#N	5	-5	2.3	-22	·	·	4316
CCOc1cccc(C2C(C#N)=C(N)Oc3cc(C)n(Cc4ccccn4)c(=O)c32)c1OCC (centres undefined)	-5	10	1.9	1	·	·	4875
O=c1c2ccccc2nc(COc2ccccc2)n1/N=C/c1c[nH]c2ccccc12	·	1	·	-24	·	·	2117
CCOc1ccc2nc(SCC(=O)NCc3ccco3)sc2c1	15	4	1.9	-6	7	5	21294*
Cc1cc(C(=O)OCC(=O)Nc2ccccc2F)c(C)o1	2	15	1.3	-16	·	·	·
Cc1cccc(OCC(=O)Nc2nnc(-c3ccco3)s2)c1	-3	1	-1.0	-24	-1	5	2604
COc1ccccc1C(=O)NNC(=O)c1ccc(NS(=O)(=O)c2cccs2)cc1	0	4	7.5	9	6	9	6757
Cc1c(Cc2ccccc2)c(=O)oc2cc(OCC(=O)NCC(O)c3ccccc3)ccc12 (centres undefined)	10	7	9.8	-6	-3	-7	4197
Cc1cc(C(=O)OCC(=O)NC(=O)NC(C)(C)C)c(C)o1	15	-14	9.2	-18	16	15	3407
COc1cc(/C=N/NC(=O)CC2(C)OCCCO2)ccc1OCc1ccc(Cl)cc1Cl	·	8	·	-30	·	·	2604
Cc1cc(C)n2cc(COc3ccc4ccccc4c3)nc2n1	-1	0	0.8	-109	-2	-1	2867
OCCC1CN(Cc2cc(F)ccc2-n2cccn2)CCN1Cc1ccc(F)cc1 (centres undefined)	5	3	1.4	-9	-2	-5	4528
O=C1/C(=C/c2cccnc2)Oc2cc(OS(=O)(=O)c3ccc(Cl)cc3)ccc21	-21	-6	4.0	-15	-4	8	21029*
CCc1ccccc1N1CC23C=CC(O2)C(C(=O)O)C3C1=O (centres undefined)	5	-8	1.7	-11	·	·	4308
COc1ccc(C(=O)c2nccc3cc(OC)c(OC)cc23)cc1OC	1	·	4.3	-7	3	1	3998
CCOCCCNc1c2c(nc3cc(-c4ccc(F)cc4)nn13)CCC2	8	-5	-1.2	-8	13	15	3375
O=C(NCC1CCCO1)C1CCN(S(=O)(=O)c2cccnc2)CC1 (centres undefined)	1	-8	5.6	-27	·	·	2356
O=C(CSC1=N/C(=C/c2ccc(Cl)c(Cl)c2)C(=O)N1c1ccccc1F)NC1CC1	-4	4	-4.2	-16	9	-2	2543
CC(=O)Nc1ccc(NC(=O)COc2ccc(Cl)cc2Cl)cc1	-1	10	-1.4	-26	0	-6	4063
N#C/C(=C\c1ccc(OC(F)F)cc1)C(=O)N1CCCCC1	-13	-5	-1.0	1	-5	5	4538
Cc1ccc(S(=O)(=O)N(C)CC(=O)OCC(=O)c2ccc3c(c2)NC(=O)CO3)cc1	1	·	4.9	-2	12	8	3870
Cc1ccc(C(=O)c2c3ccccc3[n+]([O-])n2C(C)C(N)=O)cc1 (centres undefined)	-3	·	5.3	·	4	3	·
CC(=O)C[C@@H](O)CC(=O)[C@@H]1OC(=O)[C@@H](C)C/C=C\Cc2ccccc21	4	·	4.1	47	-9	-7	3979
Cc1n[nH]c(=S)n1N=Cc1ccc(Br)o1	-11	·	-8.1	·	3	8	·
CC(Sc1ccccc1)C(=O)NN=C1CCN(C)CC1 (centres undefined)	3	0	5.6	-27	1	6	4190
Cc1noc(C)c1NC(=O)N(C)C[C@@H]1Oc2c(NC(=O)c3ccncc3)cccc2C(=O)N([C@H](C)CO)C[C@@H]1C	-1	·	-11	-17	8	9	2947
Cc1cccc(-n2ccc(=O)c(C(=O)Nc3ccc(S(=O)(=O)N4CCOCC4)cc3)n2)c1	-5	7	-3.8	-4	-11	-5	5156
Cn1cccc1/C=N/NC(=O)c1cccs1	·	-4	·	-60	·	·	6004
COC(=O)C1=C(C)NC(=S)NC1c1ccc(-c2cccc(Cl)c2)o1 (centres undefined)	0	-9	-6.3	2	-6	0	9437
CCOC(=O)/C(=C\c1c[nH]c2ccccc12)NC(C)=O	7	-1	5.4	-13	1	5	2433
CCOC(=O)c1[nH]cnc1C(=O)Nc1cccc(N)n1	0	-4	-7.2	-14	-4	1	2856
CCCNC(=O)CSc1nc2[nH]ncc2c(=O)[nH]1	8	-4	0.5	2	8	-2	2249
COc1ccc(Cl)cc1NC(=O)NC1CCCCC1	-10	-7	-11	0	-11	9	2928
O=C(CSc1nc2c(c(=O)n1-c1ccccc1)SCC2)N1CCN(c2ccccc2)CC1	-5	-17	-12	-3	5	5	4578
CC1CN(c2ccnc3cc(Cl)ccc23)CC(C)O1 (centres undefined)	7	-8	6.1	-10	0	-1	3673
O=C(NN=C1c2ccccc2-c2ccccc21)c1cccc(Br)c1	-15	-2	12	2	14	-6	2460
CC(=O)NC1CC(C)(C)N(OC(C)=O)C(C)(C)C1	-1	5	1.4	0	-11	3	9744
Cc1ccc(S(=O)(=O)N2CC(O)CC2C(=O)OCc2nc3sc(C)c(C)c3c(=O)[nH]2)cc1 (centres undefined)	4	-20	1.4	-18	-1	-1	2452
CCOC(=O)N1CCN(C(=O)c2n[nH]c(=O)c3ccccc23)CC1	2	-6	-1.4	-12	-10	-3	4825

Remaining list, next part.
SMILES	Sa ugtP lethal	BJeLR viability	Sa RN4220 lethal	PrP 5UTR inh	Mtb hypoxia inh	Mtb hypoxia inh growth	Autofluor counter
CC1CCN(S(=O)(=O)c2cccc(-c3csc(-c4cccnc4)n3)c2)CC1	-2	4	12	4	-1	-6	2920
CSCCC(NS(=O)(=O)/C=C/c1ccccc1)C(=O)N1CCC(C)CC1 (centres undefined)	16	-1	7.3	-11	8	-2	4292
CC1CCCCC12NC(=O)N(CC(=O)N1CCc3ccccc3C1)C2=O (centres undefined)	4	·	3.5	-18	2	-8	?
Cc1cc(Cl)ccc1OCc1n[nH]c(=S)n1C1CCCCC1	5	-12	5.8	-19	11	9	3599
CC1CC(=O)C2=C(C1)OC(N)=C(C#N)C2c1coc2ccccc2c1=O (centres undefined)	5	-4	5.6	-28	9	0	9395
Cc1ccc(S(=O)(=O)N(c2cc(Cl)c(O)c(Cl)c2)P(=O)(OC(C)C)OC(C)C)cc1	-4	-1	19	-62	-7	3	4062
Cc1nn(-c2ccccc2Cl)c(Cl)c1C=NNc1cccc(C(=O)O)c1	-13	·	2.9	·	-4	7	·
COc1ccc(CNC(=O)c2cc(-c3cc(C)cc(C)c3O)n[nH]2)cc1	-8	1	-3.4	-5	1	-3	5002
N=C1/C(=C/c2ccc(OC(=O)c3ccco3)cc2)C(=O)N=C2SC=CN12	1	6	11	-21	5	8	3766
Cc1nnc(SCC(=O)Nc2nnc(SCc3cccc(Br)c3)s2)s1	-12	-10	4.8	-27	8	16	8929
CC(=CC(=O)c1ccccc1)c1ccccc1	12	·	10	-41	7	6	2864

Assay outcomes (PubChem BioAssay)
